Source: PubChem BioAssay
gsp agonist: qHTS for Agonist of gsp, the Etiologic Mutation Responsible for Fibrous Dysplasia/McCune-Albright Syndrome: qHTS; hit rate 0.13% among 340,000; Potency, µM (top dose mostly 76.9 µM), without a hit: at the highest dose activation (cAMP increase), hits mostly activators; gsp mutant cells, cAMP HTRF, 30 min; control for the full effect not named in the record; active = well fitted activation curve with a large enough effect; inconclusive = small, poorly fitted or top-dose-only effect, or another doubt; inactive = no such curve, though single readings can be large or run the other way; cell line not stated here;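 also: phosphodiesterase inhibitor Ro 20-1724 added with compounds to block cAMP breakdown; potency is read from the fitted curve at half-maximal effect; nearly all actives have a fitted effect of over 60% in size; about a fifth of the inactives were tested at one dose only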
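Cells stably selected in G418 were plated at 2000/well, grown 16-24 hr, then given compounds in DMSO with the PDE inhibitor […] (300 uM solution added) for 30 min at 37C; cAMP was read by HTRF.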
D2 PAM: Beta-Arrestin HTS for Positive Allosteric Modulators of the Human D2 Dopamine Receptor: Potentiators. D(2) dopamine receptor (Homo sapiens), P14416. DiscoveRx D2 beta-arrestin cells, luminescence, 90 min; 100% = 57 uM dopamine signal. potentiation, % (concentration not given with the values). hit rate 0.23% among 360,000. AID 624464, 2012; active = potentiation of 50% or more; inconclusive = 30% to 50%; inactive = 30% or less;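 also: compound concentration not given in the record; tested on top of an EC20 dose of dopamine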
Target sequence (P14416 whole entry, looked up): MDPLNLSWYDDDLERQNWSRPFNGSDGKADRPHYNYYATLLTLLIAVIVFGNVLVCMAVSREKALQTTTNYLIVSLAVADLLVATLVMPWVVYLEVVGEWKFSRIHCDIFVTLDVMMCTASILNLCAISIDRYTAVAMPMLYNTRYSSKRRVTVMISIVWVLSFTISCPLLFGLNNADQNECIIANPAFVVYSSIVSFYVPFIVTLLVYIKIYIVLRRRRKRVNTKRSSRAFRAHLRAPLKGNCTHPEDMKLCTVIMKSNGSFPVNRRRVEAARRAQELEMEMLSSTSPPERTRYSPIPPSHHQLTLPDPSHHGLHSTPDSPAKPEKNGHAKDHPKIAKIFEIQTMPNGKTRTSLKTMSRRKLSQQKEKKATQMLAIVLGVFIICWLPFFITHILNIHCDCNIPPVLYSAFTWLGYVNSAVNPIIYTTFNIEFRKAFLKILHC
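PathHunter beta-arrestin assay in DiscoveRx D2 cells. Compounds were added with an EC20 of dopamine (50 nM final) for 90 min at 37 deg C. Luminescence was read 1 h after detection reagent, with 57 uM dopamine as the EC100 control.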
CtBP-E1A inh: qHTS Assay for Inhibitors of the CtBP/E1A Interaction | CtBP / adenovirus E1A interaction (AlphaScreen) | activity change, % (concentration not given with the values) | AID 651724, 2012 | AlphaScreen GST-E1A/His-CtBP binding, 1536-well; stronger effect = lower value; control for the full effect not named in the record | hit rate 0.49% among 340,000; in the data active means activity change below about -65%; inconclusive means about -30% to -65%; inactive means above about -30%; also: % is scaled to controls: 0 for no effect and ±100 for the full control effect
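Protein mix (5X: 125 nM each GST-E1A, His-CtBP) was incubated with pinned compound 2 h at 37 deg C in dark, in 50 mM Tris pH 8.0 buffer with 300 mM NaCl. Glutathione donor and nickel acceptor beads followed; AlphaScreen signal read after 1 h.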
gsp antag: qHTS for Antagonists of gsp, the Etiologic Mutation Responsible for Fibrous Dysplasia/McCune-Albright Syndrome: qHTS; gsp-mutant cells, cAMP HTRF, 30 min; control for the full effect not named in the record; Potency, µM (series often up to 76.9 µM), for inactives: at the highest dose activity change, negative = inhibition, actives largely listed as inhibitors; hit rate 0.4% among 340,000; AID 624288, 2012; active = falling curve of any shape with a large fitted effect; inconclusive = falling curve, mostly with a smaller effect; inactive = flat or rising curve; cell line not stated here;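 also: intracellular cAMP measured with PDE inhibitor Ro 20-1724 present during compound exposure; potency is read from the fitted curve at half-maximal effect; % is scaled to controls: 0 for no effect and ±100 for the full control effect; nearly all actives have a fitted effect of over 65% in size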
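HTRF cAMP measurement after 30 min RT detection following 30 min, 37C compound treatment alongside […] (added as 300 uM solution) in G418-selected cells seeded at 2000/well and grown 16–24 h.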
D2 ag: Beta-Arrestin HTS for Positive Allosteric Modulators of the Human D2 Dopamine Receptor: Agonists. D(2) dopamine receptor (Homo sapiens), P14416. DiscoveRx PathHunter D2 beta-arrestin, luminescence, 90 min; 100% = 57 uM dopamine signal. activation, % (concentration not given with the values). hit rate 0.084% among 360,000; in the data active = activation above about 40%; inconclusive = about 15% to 40%; inactive = below about 15%; also: compound concentration not given in the record; the text of the record calls up to 30% inactive
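Agonist mode: compounds alone added to overnight-plated D2 PathHunter cells for 90 min at 37 C, with 57 uM final dopamine (EC100) defining full response. Beta-arrestin recruitment detected by chemiluminescent reagent, read after 1 h at ambient temperature.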
Six1-Eya2 blk: qHTS Assay for Inhibitors of the Six1/Eya2 Interaction; Homeobox protein SIX1 (Homo sapiens) + Protein phosphatase EYA2 (Homo sapiens), …; AlphaScreen GST-Six1/His-Eya2 binding, biochemical; stronger effect = lower value; control for the full effect not named in the record; activity change, % (test concentration not listed); hit rate 0.56% among 360,000; AID 651725, 2012; in the data active = activity change below about -65%; inconclusive = about -30% to -65%; inactive = above about -30%; also: % is scaled to controls: 0 for no effect and ±100 for the full control effect; compound concentration not given in the record
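Compounds are tested against tagged Six1 and Eya2 proteins bridged by glutathione donor and nickel acceptor beads; after a one-hour incubation at 37 °C without light, AlphaScreen emission is recorded.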
* = called active by the depositor; ? = inconclusive; / = not tested or not shown; & = joins results of further samples; [ ] = remark or other dose.

SMILES	gsp agonist	D2 PAM	CtBP-E1A inh	gsp antag	D2 ag	Six1-Eya2 blk
Cc1noc(C)c1COc1cccc(C(=O)N(C)Cc2nc3ccccc3c(=O)[nH]2)c1	?	1	1	-3%	3.7	-3
COc1ccc(CC(=O)N/N=C(\C)c2ccccn2)cc1	8%[15.4 µM]	-7	-73*	21%	-5.2	-85*
N/C(=N\OC(=O)COc1ccc(Cl)cc1Cl)c1ccccn1	-23%	-9	/	-2%	0.6	-1
CCOC(=O)C1CCCN(C(=O)c2cc(CN3C(=O)c4ccccc4C3=O)ccc2OC)C1 (stereo not drawn)	1%	17	18	2%	-3.0	-5
COc1ccc(CNC(=O)CCNC(=O)C2CCN(S(=O)(=O)c3ccc(OC)cc3)CC2)cc1	-73%[inhibitor]	-14	0	/	-2.5	8
COC(=O)[C@H](C)NC(=O)Nc1ccc(S(N)(=O)=O)cc1	5%	-5	11	6%	0.7	0
CC(=O)Nc1ccc2c(c1)CCCN2C(=O)c1ccccc1	-54%[inhibitor]	-7	7	2%[15.4 µM]	-2.3	-1
CC1(C(=O)NS(=O)(=O)c2ccc(Cl)cc2)CCN1C(=O)c1ccco1 (stereo not drawn)	/	0	9	/	-3.3	2
CSc1nc(N)nc(C2CC2)n1	-2%[15.4 µM]	-3	3	19%	4.1	6
Cc1ccc(N2CC(C(=O)Nc3ccccc3C(=O)NC3CCCCC3)CC2=O)cc1 (stereo not drawn)	?	-7	1	14%	-1.4	4
CCc1ccccc1NC(=O)Nc1cc(F)ccc1F	-32%[inhibitor]	-8	/	-26%	-4.3	4
CC(=O)NC(CC(=O)NCCCn1ccc2ccccc21)c1ccccc1 (stereo not drawn)	-8%[15.4 µM]	-13	-2	-3%	-4.3	8
O=C(/C=C/c1ccc(OC(F)F)cc1)OCC(=O)N1CCc2ccccc21	9%	-3	-1	2%	0.5	3
CC1CCN(CCCn2c(=S)[nH]c3ccc(N4CCOCC4)cc3c2=O)CC1	?	-22	3	-20%	-2.6	1
Cc1[nH][nH]c(=O)c1N=Nc1ccccc1Cl	-4%[15.4 µM]	-8	-27	-2%	-5.6	-25
Cc1cccn2c(=O)c3cc(C(=O)NCC4CCCO4)c(=N)n(C4CCCC4)c3nc12 (stereo not drawn)	39%[15.4 µM]	-5	-5	7%	-4.6	1
Cc1ccc2nc(/C(C#N)=C\c3ccc(Oc4ccc([N+](=O)[O-])cn4)cc3)[nH]c2c1	29%	0	-4	3%	5.2	2
O=[N+]([O-])c1ccc(C2=CSC3=NCCN23)cc1	-1%[15.4 µM]	12	1	-17%	2.0	7
CSCc1nc2sc(C(=O)Nc3nc(C)cs3)c(C)c2c(=O)[nH]1	-19%	11	-18	-5%	-1.4	-16
COc1ccccc1C(=O)C1CCCN(Cc2cn[nH]c2C2CCCCC2)C1 (stereo not drawn)	?	-13	-2	5%	-2.3	0
Cc1ccc(NC(=O)COS(=O)c2ccc(C)cc2)cc1 (stereo not drawn)	1%	-16	1	5%	3.6	1
COc1cc(/C=C/c2nc3ccccc3s2)cc(OC)c1O	7%[15.4 µM]	3	3	-4%	-0.6	12
CCc1n[nH]c2c1/C(=N\O)CC(c1ccccc1)C2 (stereo not drawn)	9%	-8	0	3%	-1.0	1
O=c1[nH]c2ccccc2n2c(-c3ccccc3)nnc12	?	?	?	14%	10.0	-65*
C=CCNc1nc(N)c(C(=O)c2ccc3c(c2)OCO3)s1	2%	-13	-13	9%	-5.0	-14

Continuation.
SMILES	gsp agonist	D2 PAM	CtBP-E1A inh	gsp antag	D2 ag	Six1-Eya2 blk
COc1ccc(NC(=O)CN(C)C(=O)c2cn(-c3ccccc3)nc2-c2cccs2)cc1	2%	1	-11	-26%	-2.9	-7
Cc1ccc(CN(CC(=O)N/N=C/c2ccccc2[N+](=O)[O-])S(=O)(=O)c2ccc(C)cc2)cc1	12%	10	-5	-8%[15.4 µM]	-3.8	-15
CCSc1nnc(-c2ccccc2N=Cc2c(C)[nH]n(-c3ccccc3)c2=O)c(=O)[nH]1	-24%	-14	?	?	1.0	-24
O=C(N[C@H]1C/C=C\C(c2ccc(F)cc2)N(Cc2ccccc2)C(=O)C1)OCC1c2ccccc2-c2ccccc21 (stereo partly drawn)	/	/	-10	5%	-1.7	-8
O=C(N1CCC(n2nc(-c3ccccc3)oc2=O)CC1)C1(c2ccccc2)CC1	-27%	-2	-18	-21%	3.0	3
CCCC#Cc1ccc2c(c1)O[C@H](CN(C)C(=O)CC1CC1)[C@H](C)CN([C@@H](C)CO)S2(=O)=O	-34%[inhibitor]	2	0	/	-13	-1
CCN(c1ccc(NC(=O)CSc2nnc3nc(C)cc(C)n23)cc1)C(C)C	-22%	-9	-1	-15%	1.7	-4
O=C(NCCCN1CCOCC1)c1ccc2c(=O)n(-c3ccc(F)c(Cl)c3)c(=S)[nH]c2c1	70%[15.4 µM]	-12	-7	-4%	-6.6	-1
Cc1ccc(/C=C/S(=O)(=O)NCC(=O)OCC(=O)N2CC(=O)Nc3ccccc32)cc1	1%	-6	-28	6%	-2.8	1
COc1ccc(C(=O)NCCS(=O)(=O)NCc2ccc3c(c2)OCO3)cc1	5%[15.4 µM]	-6	0	-5%	-1.1	-10
COc1ccc(OC)c(CNCc2ccc3c(c2)OCO3)c1	-24%	-4	-10	6%	-3.5	-2
O=C(Nc1cccc([N+](=O)[O-])c1)Nc1cccc([N+](=O)[O-])c1	7%	-10	-13	?	-9.9	-2
Cc1cccc(C)c1OCC(O)CNC(C)C (stereo not drawn)	4%	2	-2	15%	2.1	10
Cc1c(C=NNC(=O)c2ccc(Br)cc2)c2ccccn2c1C(=O)c1ccncc1	0%	-18	/	-7%	-2.5	-1
COc1ccc(-n2c(SCC(=O)O)nnc2-c2ccc(NC(=O)c3ccccc3)cc2)cc1	-7%[15.4 µM]	12	0	14%	-0.8	5
Cn1ncc2c(NNC(=O)Cc3ccccc3)ncnc21	1%	-11	-1	9%	-2.4	3
COc1ccc(S(=O)(=O)N(CC(=O)NCc2ccccn2)c2ccc(Cl)cc2)cc1	0%[15.4 µM]	-12	?	-11%	-1.4	-17
COc1ccc2occ(C(=O)c3ccc(N)cc3)c2c1	19%	0	8	-2%	6.1	-1
COc1ccc(/C=C/C(=O)NCC(=O)N=Nc2c(O)[nH]c3ccc([N+](=O)[O-])cc23)cc1	?	-6	-3	-15%	-3.1	-21
Cc1oc2cc3oc(=O)c(CCC(=O)NCCCn4ccnc4)c(C)c3cc2c1C	/	-54	?	-15%	-9.2	-9
O=C(Nc1nc(SCc2ccc(F)cc2)ns1)c1ccco1	?	-9	5	-16%	-0.5	0
COCCCn1cnc2oc3nc4ccccc4nc3c2c1=O	17%	?	-2	-2%	1.9	-3
C/C(CC(=O)NC(C)c1ccccc1)=N\NC(N)=S (stereo not drawn)	-7%[15.4 µM]	-7	3	7%	-0.6	10
Cc1ccc(C)c(Cn2c(CN(C)Cc3ccccc3)nc3c2c(=O)n(C)c(=O)n3C)c1	3%	1	-19	-17%	-0.1	-4
CCOC(=O)c1cc(-c2cccnc2)nn1-c1ccccc1	-7%[15.4 µM]	-6	12	-4%	-0.1	-1

(more compounds)
SMILES	gsp agonist	D2 PAM	CtBP-E1A inh	gsp antag	D2 ag	Six1-Eya2 blk
COCCn1c(SCC(=O)Nc2cccnc2Cl)nc2ccccc2c1=O	31%	-17	16	-16%	-3.0	2
CN1CCN(CCCNC(=O)CCC(=O)N2CCOc3ccccc32)CC1	?	-6	8	7%	-2.9	6
O=C(CCNC(=O)c1ccco1)NCCc1c[nH]c2ccccc12	3%[15.4 µM]	-14	3	-6%	0.0	2
COc1ccccc1NC(=O)COC(=O)C1=NN(c2ccccc2)C(=O)CC1	4%[15.4 µM]	-26	-2	-2%	-2.7	11
CCN(CC)S(=O)(=O)c1cccc(C(=O)N[C@H](C(=O)NCc2ccccc2F)C(C)C)c1	-36%[inhibitor]	-8	-9	-2%	-0.2	-1
CC(=O)Nc1ccc(NC(=O)C(C)OC(=O)CSc2ccc(Br)cc2C)cc1 (stereo not drawn)	?	-5	-4	-9%	-0.8	1
Cc1cc(NC(=O)c2ccc([N+](=O)[O-])cc2Cl)no1	39%	0	-11	1%	12	-13
CCOc1ccc(C2c3c(oc4cc(C)c(C)cc4c3=O)C(=O)N2CCCN(C)C)cc1OC (stereo not drawn)	-56%[inhibitor]	4	4	-3%	4.6	0
COc1ccccc1CNC(=O)CCC(=O)n1ncc2cc(C)ccc21	29%	-1	5	2%	-5.9	11
CCCn1c(SCC(=O)c2c[nH]c3ccccc23)nnc1-c1ccncc1	-1%	4	-15	3%	0.9	-15
CCc1ccc(OCC(O)CN2CCN(c3ccccc3)CC2)cc1 (stereo not drawn)	21%&-47%	-12&0	-11&4	9%&0%	?	-14&-7
CCCn1c(O)c(N=NC(=O)CNC(=O)c2ccncc2)c2ccccc21	5%	-25	0	-5%	-5.5	2
Cc1c(C(=O)N2CCCCCC2)oc2ccccc12	-2%	-8	16	-5%	-1.4	5
O=C(N=C1N=C2C=CC=CN2Cc2ccccc21)c1ccc(S(=O)(=O)N2CCOCC2)cc1	?	-8	-6	10%	-2.5	-3
Cc1nnc(NC(=O)C2CC(=O)N(c3ccc4c(c3)OCCO4)C2)s1 (stereo not drawn)	6%	-3	-6	10%	4.0	1
c1csc(CCCN2CCCCC2)c1	-18%	-10	16	-1%	-3.6	-6
COC(=O)[C@H](C)NC(=O)c1cc2c(cn1)[nH]c1ccccc12	13%	-4	-2	2%	-3.8	1
Cc1cc(NC(=O)C(C)SCC(=O)N(C)CC(=O)Nc2ccc(Br)cc2C)no1 (stereo not drawn)	?	-14	-8	0%	-2.7	-3
CCN(CC)C(=O)Cn1cc(C(=O)C(=O)NCCc2ccc(S(N)(=O)=O)cc2)c2ccccc21	29%	-2	/	-9%	-3.1	0
CCCCCCCN1CCN=C1Nc1ccccc1	/	-20	0	9%	-3.8	-3
CCOC(=O)N/N=C/c1ccc(OC)c(O)c1	-18%	-1	/	10%	-1.2	-5

Full records as entered above. Values in the order: gsp agonist | D2 PAM | CtBP-E1A inh | gsp antag | D2 ag | Six1-Eya2 blk
Record of Cc1nnc(NC(=O)C2CC(=O)N(c3ccc4c(c3)OCCO4)C2)s1 (stereo not drawn) → 6% | -3 | -6 | 10% | 4.0 | 1
Record of Cc1cc(NC(=O)c2ccc([N+](=O)[O-])cc2Cl)no1 → 39% | 0 | -11 | 1% | 12 | -13

Random draw from the library; overall some 1.4% were active at least once.
